Assay outcomes (PubChem BioAssay)
Dengue-2_NS5_capping – Dengue-2 NS5 methyltransferase inhibitors, primary screen, biochemical, confirmation dose response (AID 588689). Dengue-2 NS5 methyltransferase capping enzyme assay, biochemical; higher % means a stronger effect. one-dose inhibition, % at 25 µM; IC50 in µM for titrated hits. 340,000 compounds, 0.3% hits; in the data active = a potency from the dose series
SV40_large_T_antigen – SV40 large T antigen inhibitors, biochemical (AID 1903) | SV40 large T antigen ATPase/helicase inhibition assay; higher % means a stronger effect | inhibition, % at 20 µM, or IC50 in µM where a hit was titrated | 310,000 compounds, 0.39% hits; in the data active = a potency from the dose series; note: strong numbers were not always called active
XIAP_displacement – XIAP antagonists, biochemical, IAP family, fluorescence polarization (AID 1018); XIAP BIR domain, fluorescence polarization peptide displacement; higher % means a stronger effect; 200,000 compounds, 0.007% hits; displacement, % at 20 µM; hits with a dose series show IC50 in µM; in the data active = displacement above about 50%; note: a part of the inactive calls stands beside numbers as strong as those of hits
Numbers without * were called inactive; x = no result given; & = joins results of further samples.

SMILES Dengue-2_NS5_capping SV40_large_T_antigen XIAP_displacement
O=C(CSc1ncnc2ccccc12)NCc1ccc2c(c1)OCO2 -6.6% -0.3% 0.0%
N[C@@H](Cc1cc(I)c(Oc2ccc(O)c(I)c2)c(I)c1)C(=O)O -0.8%&0.0% 20.0%&27.7%&8.6% -1.8%&-3.7%
Cc1nc2ccccc2n1S(=O)(=O)c1ccc(F)cc1 -1.8% x x
O=C1NC[C@H](c2ccccc2)OC(=O)[C@H](Cc2ccc(F)cc2)CC/C=C/C[C@@H]1CC(=O)N(CCO)Cc1ccccc1 0.0% x x
CC(=O)Oc1ccc(-c2cc3ccc(OC(C)=O)cc3oc2=O)cc1 -15.5% 16.3% x
O=C1NC[C@@H](c2ccccc2)OC(=O)[C@H](Cc2ccc(F)cc2)CC/C=C/C[C@H]1CC(=O)N(CCO)Cc1ccccc1 6.6% x x
O=C(COc1ccc(Cl)cc1Cl)Nc1noc2ccccc12 -4.8% 24.9% -6.6%
O=C1NC[C@@H](c2ccccc2)OC(=O)[C@@H](Cc2ccc(F)cc2)CC/C=C/C[C@@H]1CC(=O)N(CCO)Cc1ccccc1 -1.6% x x
O=C(O)Cn1nc(C(F)(F)F)c2c1CCCCC2 26.6% 6.8% -11.4%

Quoted at random: 2 compounds from above
SMILES Dengue-2_NS5_capping SV40_large_T_antigen XIAP_displacement
O=C(CSc1ncnc2ccccc12)NCc1ccc2c(c1)OCO2 -6.6% -0.3% 0.0%
O=C1NC[C@@H](c2ccccc2)OC(=O)[C@H](Cc2ccc(F)cc2)CC/C=C/C[C@H]1CC(=O)N(CCO)Cc1ccccc1 6.6% x x

4 structures already listed, arranged by heavy-atom count, high to low.
SMILES Dengue-2_NS5_capping SV40_large_T_antigen XIAP_displacement
O=C1NC[C@H](c2ccccc2)OC(=O)[C@H](Cc2ccc(F)cc2)CC/C=C/C[C@@H]1CC(=O)N(CCO)Cc1ccccc1 0.0% x x
CC(=O)Oc1ccc(-c2cc3ccc(OC(C)=O)cc3oc2=O)cc1 -15.5% 16.3% x
N[C@@H](Cc1cc(I)c(Oc2ccc(O)c(I)c2)c(I)c1)C(=O)O -0.8%&0.0% 20.0%&27.7%&8.6% -1.8%&-3.7%
O=C(O)Cn1nc(C(F)(F)F)c2c1CCCCC2 26.6% 6.8% -11.4%

The list is partial; rates above refer to the full screens.
